Insulin prom inh – TRM-6 insulin promoter activity inhibition; TRM-6 cells (human fetal islet line), insulin promoter-eGFP reporter, imaging; reporter expression induced with tamoxifen; inhibition, % at 2 µM; hit rate 0.9% among 130,000;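 active means inhibition above the mean plus 3 SD, with well images judged a real hit on visual review, cut at about 60% in these data, passing the limit was not always enough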
RGS16-Gao HTS – regulators of human RGS16-Galphao interaction; bead-based flow cytometry RGS16-Galphao binding, fluorescence; actives lie on both sides; hit rate 0.38% among 220,000; binding response (% of control), % at 10 µM; O15492+P09471;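 active means below 25% or above 175%, edge rows of some plates excepted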;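 further: Galphao activated by GDP with aluminum fluoride before binding; 100% = wells without compound and 0% = beads without RGS; some results beyond the cut were filed as inactive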
Target sequence (O15492 whole entry, looked up): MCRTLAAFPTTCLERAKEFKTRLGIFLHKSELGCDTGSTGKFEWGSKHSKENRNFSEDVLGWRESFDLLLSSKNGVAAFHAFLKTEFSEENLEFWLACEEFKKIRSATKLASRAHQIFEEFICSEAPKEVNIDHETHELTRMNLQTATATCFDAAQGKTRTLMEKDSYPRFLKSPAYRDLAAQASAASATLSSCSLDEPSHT
Target sequence (P09471 whole entry, looked up): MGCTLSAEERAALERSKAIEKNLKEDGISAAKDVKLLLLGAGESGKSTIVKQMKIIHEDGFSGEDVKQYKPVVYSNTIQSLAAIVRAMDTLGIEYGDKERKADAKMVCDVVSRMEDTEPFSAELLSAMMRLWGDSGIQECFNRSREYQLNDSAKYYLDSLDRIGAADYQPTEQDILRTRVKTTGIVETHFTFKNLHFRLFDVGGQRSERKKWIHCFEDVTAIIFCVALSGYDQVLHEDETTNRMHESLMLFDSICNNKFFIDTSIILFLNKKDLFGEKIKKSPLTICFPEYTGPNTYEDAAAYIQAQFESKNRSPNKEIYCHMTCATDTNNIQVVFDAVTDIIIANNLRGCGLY
PKD1 kinase inh – PKD1 (human) kinase inhibition. hit rate 0.056% among 200,000. PKD1 kinase fluorescence polarization assay. AID 797. inhibition, %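 (about 10 µM by stock and volumes)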;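 active means inhibition of 50% or more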;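 further: controls were vehicle for no effect and a reference inhibitor for full effect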
GALR2 ag – activates the human galanin receptor 2. O43603. GALR2-expressing cells, agonist activation read-out. activation, %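 (tested at 5 µM)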. hit rate 0.48% among 140,000;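 active means above mean plus 3 SD of all compounds, about 5% in these data, not always enough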;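 further: 0% = vehicle buffer wells and 100% = reference agonist at full effect; tested in CHO reporter cells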
Target sequence (O43603 whole entry, looked up): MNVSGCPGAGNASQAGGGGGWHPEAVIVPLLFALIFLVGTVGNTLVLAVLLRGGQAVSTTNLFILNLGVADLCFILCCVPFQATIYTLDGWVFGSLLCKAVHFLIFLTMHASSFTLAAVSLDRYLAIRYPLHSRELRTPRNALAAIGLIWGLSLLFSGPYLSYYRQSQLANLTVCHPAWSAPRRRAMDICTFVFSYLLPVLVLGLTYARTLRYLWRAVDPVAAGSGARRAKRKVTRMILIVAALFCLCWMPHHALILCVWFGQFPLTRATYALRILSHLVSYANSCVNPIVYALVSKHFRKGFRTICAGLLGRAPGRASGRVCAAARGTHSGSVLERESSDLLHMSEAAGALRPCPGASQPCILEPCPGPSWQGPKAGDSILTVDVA
HSV augment – increases HSV replication in cells | HSV replication augmentation in cells, fold increase | maximum fold increase | hit rate 0.005% among 220,000;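 active means peak rise of 1.5-fold or more in the series; tested in PC3 cells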;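 further: first round at 10 µM; read as green reporter fluorescence; hits show the peak of a series up to 25 µM; 1 = signal of infected wells without compound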
Insulin prom inh cell count – also measured in Insulin prom inh; calls as there; normalized cell count, %; measured here: cell count, toxicity; reference of the scale not given here;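 cells exposed to compound for 48 h; stained nuclei by imaging scaled within each plate; lower means fewer cells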
HSV augment primary fold – also measured in HSV augment; calls as there; fold increase; compound at 10 µM; measured here: primary screen fold increase 10 uM; tested in PC3 cells;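 GFP signal in the first replicate; 1 = infected wells without compound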
* hit, by the source's call; i = inactive; . = not tested or not shown.

SMILES	Insulin prom inh	Insulin prom inh cell count	RGS16-Gao HTS	PKD1 kinase inh	GALR2 ag	HSV augment	HSV augment primary fold
O=C1c2ccccc2C(=O)c2c(NCc3cccnc3)cccc21	20.8	67.8	100.1	-8.7	-1.2	i	0.91
CC(C)(C)C(=O)N(Cc1ccc(Cl)cc1)Cc1cccnc1	.	.	102.3	.	.	i	1.24
CCS(=O)(=O)Nc1cccc(C2=NN(S(=O)(=O)c3ccccc3)C(c3ccco3)C2)c1 (stereo not given)	.	.	96.9	.	.	i	1.16
O=C(NCCc1ccc2c(c1)OCCO2)c1ccc(F)cc1	.	.	98.2	-7.8	0.9	i	1.01
CC(C)(C)NC(=S)NC(=O)C12CC3CCC(CC(C3)C1)C2	.	.	99.9	-6.5	0.0	i	0.89
CC(C)(C)NCC(O)COc1ccc(Br)cc1 (stereo not given)	41.2	38.7	106.0	-8.0	.	i	1.14
O=C(CC(Sc1n[nH]c(-c2ccccc2)n1)c1ccccc1)NCc1ccccc1 (stereo not given)	.	.	105.6	7.5	-1.2	i	0.99
COc1ccc(-c2cc(-c3ccc(OC)cc3)nc(-c3ccc4c(c3)NC(=O)CO4)c2)cc1	-11.4	69.2	107.3	-4.8	-0.9	i	0.73
CCCCCOCC1CC(C/C(C)=N/Nc2nc(-c3ccccc3)cs2)C(=O)O1 (stereo not given)	33.3	103.4	96.7	-0.7	-1.7	i	1.05
O=C(COCc1ccccc1)N[C@@H](Cc1ccc(O)cc1)C(=O)O	.	.	99.8	10.5	.	i	1.06
CC1CCCCC1NC(=O)/C(C#N)=C/C=C/c1ccccc1[N+](=O)[O-] (stereo not given)	.	.	96.6	3.6	.	i	0.76
COc1ccc(OC)c(N(CC(=O)Nc2ccc(NC(C)=O)cc2)S(C)(=O)=O)c1	20.9	119.2	103.0	-10.6	-2.2	i	0.91
CCCCNc1n[n+](C)c(-c2cccc(C)c2)s1	.	.	102.0	.	.	i	0.88
CC(=O)N1CCC(N(CCN2CCOCC2)C(=S)Nc2cc(C)ccc2C)CC1	11.1	76.0	157.3	-1.0	-1.8	i	0.98
NC(=O)N/N=C/c1c(F)cccc1F	0.0	73.5	107.6	7.7	-0.9	i	1.07
CCOC(CNc1ncnc2c1cnn2C)OCC	.	.	97.8	-3.7	.	i	0.95
O=c1[nH]c(CN2CCN(C/C=C/c3ccccc3)CC2)nc2ccccc12	-15.4	124.7	100.1	1.6	-1.9	i	0.88
Cc1ccc2nc(Nc3ccc4[nH]c(=O)[nH]c4c3)c(-n3nc(C)cc3C)nc2c1	27.8	91.6	110.9	-1.8	-2.8	i	1.05
CC(=O)/C=C1\N(C)c2ccc(C)cc2C1(C)C	-100.0	128.4	102.1	-3.5	.	i	1.06
Cc1cc(SCC(=O)c2ccccc2)nc(C)n1	.	.	105.1	10.4	-2.3	i	0.95
COCCCn1c(=S)[nH]c2sc3c(c2c1=O)CCCS3	.	.	91.6	0.0	.	i	0.99
Cc1ccccc1NC(=O)c1cc(C(=O)c2cc(Cl)ccc2O)cn(-c2ccccc2C)c1=O	-4.8	101.2	105.1	-12.4	-0.6	i	0.74
CC(C)NC(=S)N/N=C1\CCCc2ccccc21	.	.	93.3	-2.1	.	i	1.01
CC(=O)c1cc2c(cc1NC(=O)CN1CCC(Cc3ccccc3)CC1)OCO2	13.3	95.7	99.2	-2.3	-2.8	i	0.95
O=C(Cc1ccccc1F)Nc1ccc(Cl)nc1	62.5	122.0	87.6	-2.0	-3.4	i	0.89
CCN(CC(=O)NCCc1ccccc1)S(=O)(=O)c1ccc(C)cc1	-10.5	83.6	99.3	-16.7	-1.0	i	1.19
COc1cc(NS(=O)(=O)c2cc(C(=O)N3CCN(C(C)=O)CC3)ccc2OC)cc(OC)c1	20.0	48.7	114.9	-10.6	.	i	1.04
COCCN(C(=O)CCCC(=O)Nc1ccccn1)C(C(=O)NC1CCCC1)c1ccc(C)cc1 (stereo not given)	.	.	102.5	-2.9	0.3	i	0.91
COc1ccc(-c2cc(C(F)(F)F)n3nc(C(=O)NCCN4CCOCC4)cc3n2)cc1	.	.	96.3	0.6	.	i	0.97
CS(=O)(=O)N(CC(=O)Nc1ccc2c(c1)OCO2)Cc1ccc(Cl)cc1	-37.5	94.2	96.3	-12.8	-2.2	i	0.98
c1ccc2sc(NC3=NCN(C4CCCCC4)CN3)nc2c1	38.2	100.0	97.8	-4.5	-1.7	i	0.76
Cc1cc(C)n(CC(=O)O)c(=O)c1[N+](=O)[O-]	.	.	99.7	-0.3	.	i	1.07
Cc1cccc2c(C(=O)n3cccn3)cc(-c3ccccc3Cl)nc12	.	.	76.1	10.8	0.6	i	1.09
CC(C)(C)Nc1nc(N)nc(Cl)n1	.	.	116.8	-5.0	.	i	1.01
S=C1NC[C@H](CC2CCCCC2)N1CCCCC1CCCCC1	.	.	94.3	.	.	i	0.93
COc1ccc(-c2c(C)[nH]n3c(=O)c(Cc4ccccc4)c(C)nc23)cc1OC	.	.	104.4	-5.3	.	i	0.83
CC1(C)Cc2c(C#N)c(SCC(=O)c3ccccc3)nc(N3CCOCC3)c2CS1	72.0	56.1	102.3	0.9	2.0	i	0.81
O=C(CCN1C(=O)c2ccccc2S1(=O)=O)Nc1cccc2ccccc12	-29.4	109.1	103.4	1.8	.	i	0.91
Cc1onc(-c2ccccc2)c1C(=O)N1CCOCC1	.	.	97.0	-12.1	-1.1	i	0.997
O=C(Cc1ccccc1)N1N=C(c2ccncc2)CC1(O)C(F)(F)F (stereo not given)	.	.	102.1	.	.	i	0.9
COc1ccc(N(C(=O)c2cccc(OC)c2OC)C2C=CS(=O)(=O)C2)c(OC)c1 (stereo not given)	14.3	101.5	99.5	-15.0	-0.2	i	0.96
CCOC(=O)CNC(=O)CSc1nnc(-c2ccccc2)c(-c2ccccc2)n1	-28.2	181.3	96.0	5.9	.	i	0.61
CCOc1ccc(OCCn2c(=S)[nH]c3c(N)ncnc32)cc1	-75.0	137.9	101.7	-10.6	.	i	0.94
O=C(Cc1ccc(S(=O)(=O)N2CCOCC2)s1)Nc1nc2c(s1)CCCC2	14.7	126.0	97.1	0.3	-3.7	i	1.14
FC(F)(F)c1ccc(NC(=S)NC2CCCCC2)cc1	33.3	43.1	100.7	-2.9	.	i	0.89
COc1ccc(NC(=O)CC2C(=O)N(c3ccc(Cl)cc3)C(=S)N2NC(=O)c2cccc(F)c2)cc1 (stereo not given)	-58.6	73.3	97.3	0.7	-1.3	i	0.86
Nn1c(SCc2ccc(F)cc2)nnc1-c1ccccn1	.	.	99.8	.	.	i	1.08
CCNC(=O)c1c(C)[nH]c(C(=O)OCC)c1C	.	.	98.8	2.3	-0.6	i	0.98
O=c1cnnc(NCc2ccccc2)[nH]1	-5.6	23.2	100.2	-8.9	1.9	i	1.1
O/N=C1/CCCSc2ccccc21	.	.	102.4	11.2	-1.4	i	0.87
COc1cccc2c(=O)cc(C)n(CC(=O)Nc3cccc(C)c3)c12	.	.	95.9	-6.1	-1.9	i	0.95
OCC1(CCCc2ccccc2)CCN(Cc2cnc(N3CCOCC3)s2)CC1	.	.	96.0	-1.4	.	i	1.22
Cc1ccc(NC(=O)Cn2c(=O)n(Cc3ccco3)c(=O)c3ccccc32)c(C)c1	-6.5	81.0	100.6	-9.7	-3.8	i	1
O=C(NNC(=O)c1cccs1)c1ccc(Cl)cc1	24.1	121.2	124.4	-6.7	-0.7	i	0.92
CC(=O)C1=C(O)C(=O)N(CCC(=O)O)C1c1ccccc1Cl (stereo not given)	.	.	53.6	0.1	-1.9	i	0.88
c1ccc(Oc2c3ccccc3nc3ccccc23)cc1	.	.	98.3	.	.	i	0.64
N#Cc1ccccc1CN1C(=O)S/C(=C/c2cccn2-c2cccc(C(=O)O)c2)C1=O	28.9	41.0	101.8	1.6	-1.6	i	1
Fc1ccccc1-c1n[nH]c(=S)n1/N=C/c1c[nH]c2ccccc12	.	.	89.9	.	.	i	0.72
O=C(NCc1ccccc1)C1CCN(S(=O)(=O)N2CCCCCC2)CC1	-41.3	161.8	96.7	9.0	0.5	i	1.11
O=C(CCCO)N/N=C/c1ccccc1[N+](=O)[O-]	-30.2	67.8	171.4	5.8	-1.6	i	1.21
Following part:
SMILES	Insulin prom inh	Insulin prom inh cell count	RGS16-Gao HTS	PKD1 kinase inh	GALR2 ag	HSV augment	HSV augment primary fold
Cc1ccc(-c2ccc(CCC(=O)O)n2-c2ccc(O)cc2)cc1	8.6	154.2	82.3	-0.2	-1.2	.	.
COc1ccc(CNC(=O)c2cnn3c(C(F)F)cc(C)nc23)cc1	.	.	87.5	-2.3	-1.8	i	0.977
CCC1(CC)C(=O)N(C)C(=O)NC1=Nc1ccccc1	-34.3	119.8	99.9	-3.0	-2.8	i	0.96
Cn1c(=O)[nH]c(=O)c2c1nc(N1CCCCCC1)n2CCCSc1nc2ccccc2o1	-13.8	81.4	103.3	-9.0	-4.0	i	0.9
Cc1cc(Br)ccc1-n1[nH]c(C)c(C=Nc2cccc3nsnc23)c1=O	.	.	100.4	-1.9	.	i	0.98
COCCCN=C(c1ccco1)n1c(=S)nc(-c2ccco2)n(CCCOC)c1=S	.	.	79.0	-9.0	-3.3	i	1.01
Cc1ccc(/C(N)=N/OC(=O)c2ccc3c(c2)OCO3)cc1	-16.7	78.9	106.2	4.8	-0.3	i	1.05
CC/C(=N\NC(=O)c1csc(C)c1C)c1cccs1	-21.6	207.4	97.5	-6.3	-3.1	i	1.02
Cc1nnc(SCC(=O)Nc2nc(C(C)(C)C)cs2)s1	8.7	127.9	102.2	0.2	-3.1	i	0.78
CC(C)Cc1nc2n[nH]c(N)c2c2c1CCCC2	25.7	54.9	94.5	-3.2	-1.6	i	0.91
CC(C)C[C@H](NC(=O)c1[nH]cnc1C(=O)Nc1ccc(CNC(=O)OC(C)(C)C)cc1)C(=O)OCc1ccccc1	.	.	83.4	.	.	i	0.73
N/C(=N\OC(=O)COc1ccc(Cl)cc1Cl)c1ccncc1	.	.	159.6	-2.5	.	i	1.02
COc1ccc(CN2C(=O)NC3(CCCCC3)C2=O)cc1F	13.5	76.2	103.5	-1.9	-0.2	i	0.82
CCOC(=O)C1=C(C)NC(=O)NC1	2.3	111.0	106.2	-16.4	0.4	i	1.02
CCCCn1c(CCC(=O)O)nc2cc(S(=O)(=O)N(C)C)ccc21	61.1	80.2	106.6	3.6	.	i	0.93
COc1ccc(N2CCN(C(c3cc(OC)ccc3OC)c3nnnn3Cc3ccco3)CC2)cc1 (stereo not given)	.	.	82.0	-13.4	-0.3	i	0.77
CCOc1ccccc1NC(=O)CN1C(=O)CSC(C)C1=O (stereo not given)	.	.	105.3	3.7	.	i	1
Cc1ccc(C(=O)N2CCSCC2)cc1	44.4	50.8	104.5	-7.8	-1.3	i	1.12
Cc1cc(C)c(S(=O)(=O)NCCc2ccccc2)c(C)c1	.	.	161.8	-7.0	.	i	1
O=C(CN1CCN(c2ncccn2)CC1)Nc1ccccc1C(F)(F)F	5.3	78.9	96.0	2.2	.	i	1.02
Cc1cc(C)nc(Sc2ncnc(N)c2[N+](=O)[O-])n1	.	.	100.2	-3.5	.	i	0.93
CCOC(=O)c1c(NC(=O)CSc2nnc(CNc3ccc(F)cc3)o2)sc(C)c1C	.	.	104.0	-6.8	0.4	i	1.18
CCCCC1C2C(=O)N(c3ccc(C)cc3)C(=O)C2ON1c1ccccc1 (stereo not given)	.	.	99.1	.	.	i	1.09
CCOC(=O)Cn1c(=O)oc2cc(S(=O)(=O)N3CCCC(C(=O)OCC)C3)ccc21 (stereo not given)	.	.	100.9	-1.8	-2.2	i	0.91
COC(=O)c1ccc(-c2noc(CN(C)CC3CCCCO3)n2)cc1 (stereo not given)	.	.	104.0	-0.7	.	i	1.05
COc1cccc(/C=N/NC(=O)c2ccccc2)c1OS(=O)(=O)c1ccccc1	-33.3	109.9	25.0*	-15.4	-1.8	i	0.92

6 compounds from above, arranged by length of the SMILES, low to high:
SMILES	Insulin prom inh	Insulin prom inh cell count	RGS16-Gao HTS	PKD1 kinase inh	GALR2 ag	HSV augment	HSV augment primary fold
CCOc1ccccc1NC(=O)CN1C(=O)CSC(C)C1=O (stereo not given)	.	.	105.3	3.7	.	i	1
Cc1cc(C)c(S(=O)(=O)NCCc2ccccc2)c(C)c1	.	.	161.8	-7.0	.	i	1
O=C(CN1CCN(c2ncccn2)CC1)Nc1ccccc1C(F)(F)F	5.3	78.9	96.0	2.2	.	i	1.02
CCCCC1C2C(=O)N(c3ccc(C)cc3)C(=O)C2ON1c1ccccc1 (stereo not given)	.	.	99.1	.	.	i	1.09
COc1cccc(/C=N/NC(=O)c2ccccc2)c1OS(=O)(=O)c1ccccc1	-33.3	109.9	25.0*	-15.4	-1.8	i	0.92
COc1ccc(N2CCN(C(c3cc(OC)ccc3OC)c3nnnn3Cc3ccco3)CC2)cc1 (stereo not given)	.	.	82.0	-13.4	-0.3	i	0.77
